Bioassay records: PubChem BioAssay, National Center for Advancing Translational Sciences (NCATS)
ClpP mod: qHTS Assay for Activators of ClpP | ATP-dependent Clp protease proteolytic subunit (Bacillus subtilis (strain 168)), P80244 | 1.9% of 340,000 active | purified B. subtilis ClpP, FRET peptide cleavage, 20 min | Potency, µM (series often up to 57.5 µM), inactives show top-dose activity change, negative = active | AID 651965, 2013; active = well fitted falling curve with a large enough effect; inconclusive = small, poorly fitted or top-dose-only effect; inactive = no such curve, though single readings can be large or run the other way; note: potency is the fitted concentration of half-maximal effect; the source files actives as falling curves though it sought activators and does not explain the sign; nearly all actives have a fitted effect of over 65% in size; many hits overshoot -100%
Target sequence (P80244 whole entry, looked up): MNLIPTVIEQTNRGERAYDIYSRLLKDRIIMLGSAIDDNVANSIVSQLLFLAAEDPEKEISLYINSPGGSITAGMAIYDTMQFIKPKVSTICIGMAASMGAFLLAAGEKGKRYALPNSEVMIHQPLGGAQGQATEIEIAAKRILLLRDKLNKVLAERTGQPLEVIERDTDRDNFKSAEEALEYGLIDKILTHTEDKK
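Purified B. subtilis ClpP, 10 microg/mL final in Tris/HCl pH8 with KCl, BSA, glycerol and Tween-20, cleaved an Abz/nitrotyrosine-quenched decapeptide. Fluorescence (ex 320, em 430) was read at 0 and 20 min at room temperature. Delta was normalized to 5.8 microM ADEP and DMSO/no-enzyme controls.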
TRPML1 inh: blocks the human TRPML1 channel. TRPML1-inducible cells, Ca2+ dye fluorescence, FDSS; hits give low values; inhibition of EC80 agonist-evoked calcium signal. Q9GZU1. AID 624415. 0.02% of 390,000 active. activity change, negative = inhibition, % (concentration not given with the values); in the data active means activity change below about -50%; inconclusive means about -30% to -50%; inactive means above about -30%;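 note: stimulus is agonist 54-4 at its EC80 concentration; % is set by controls: 0 for no effect and ±100 for the full control effect; compound concentration not given in the record; the text of the record puts the active cut at -80%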
Target sequence (Q9GZU1 whole entry, looked up): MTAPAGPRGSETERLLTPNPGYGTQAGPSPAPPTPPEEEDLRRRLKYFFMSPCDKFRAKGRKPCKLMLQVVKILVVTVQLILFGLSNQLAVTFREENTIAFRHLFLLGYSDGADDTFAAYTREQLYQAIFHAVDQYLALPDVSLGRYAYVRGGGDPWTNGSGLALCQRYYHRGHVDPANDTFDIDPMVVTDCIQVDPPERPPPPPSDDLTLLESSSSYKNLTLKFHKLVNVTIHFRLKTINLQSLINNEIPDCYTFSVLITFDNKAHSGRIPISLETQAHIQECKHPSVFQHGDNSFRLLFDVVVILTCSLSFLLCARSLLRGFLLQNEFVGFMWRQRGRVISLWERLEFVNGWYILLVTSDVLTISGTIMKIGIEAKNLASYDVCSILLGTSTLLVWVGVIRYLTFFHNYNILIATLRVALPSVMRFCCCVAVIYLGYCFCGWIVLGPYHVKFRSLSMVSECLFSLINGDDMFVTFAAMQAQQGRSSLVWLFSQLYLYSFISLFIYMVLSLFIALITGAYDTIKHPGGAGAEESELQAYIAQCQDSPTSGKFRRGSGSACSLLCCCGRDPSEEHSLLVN
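TRPML1-DL cells, Tet-induced overnight (~16 h, 37 °C) at 1,500 cells/well, were loaded with Ca8 no-wash dye plus quencher for 45-90 min at room temperature. Compounds were pinned during FDSS kinetic reading; agonist 54-4 at EC80 (4 uM final) then added.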
gsp antagonist: antagonizes gsp, the McCune-Albright syndrome mutation | gsp-mutant cells, cAMP HTRF, 30 min; control for the full effect not named in the record | Potency, µM (highest dose often 76.9 µM), inactives show at the top dose activity change, negative = inhibition, actives largely listed as inhibitors | 0.4% of 340,000 active; active = falling curve of any shape with a large fitted effect; inconclusive = falling curve, mostly with a smaller effect; inactive = flat or rising curve; cell line not stated here;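 note: intracellular cAMP measured with PDE inhibitor Ro 20-1724 present during compound exposure; potency is the fitted concentration of half-maximal effect; % is set by controls: 0 for no effect and ±100 for the full control effect; nearly all actives have a fitted effect of over 65% in size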
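HTRF cAMP read-out (cAMP-d2 plus anti-cAMP antibody-K in lysis buffer, 30 min RT). Before lysis, cells are exposed to compounds with […] for 30 min at 37C in DPBS containing Ca/Mg, BSA and Tween 20.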
Sfp PPTase inh: inhibitors of Bacillus subtilis Sfp phosphopantetheinyl transferase | Q9F4F7 | Biochemical Sfp PPTase activity, qHTS | Potency, µM, inactives show max response, negative = inhibition, actives largely listed as inhibitors | 3.5% of 310,000 active | AID 1490; active = well fitted inhibition curve with a large enough effect; inconclusive = small, poorly fitted or top-dose-only effect, or another doubt; inactive = no such curve, though single readings can be large or run the other way;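 note: the enzyme is Sfp with the accession as filed and its product quenches rhodamine fluorescence; potency is the fitted concentration of half-maximal effect; 0% = enzyme reaction without inhibitor and -100% = no enzyme wells; top concentration of the series not given in the record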
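Compounds were incubated with enzyme (final 15 nM) for 15 min at room temperature before substrate addition started the reaction. Fluorescence at 525 nm excitation, 598 nm emission was recorded immediately and after 30 minutes.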
gsp ag: agonists of gsp mutant (McCune-Albright syndrome) | AID 624287 | gsp mutant cells, cAMP HTRF, 30 min; control for the full effect not named in the record | 0.13% of 340,000 active | Potency, µM (highest dose often 76.9 µM), for inactives: at the top dose activation (cAMP increase), most hits filed as activators; active = well fitted activation curve with a large enough effect; inconclusive = small, poorly fitted or top-dose-only effect, or another doubt; inactive = no such curve, though single readings can be large or run the other way; cell line not stated here;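 note: phosphodiesterase inhibitor Ro 20-1724 added with compounds to block cAMP breakdown; potency is the fitted concentration of half-maximal effect; nearly all actives have a fitted effect of over 60% in size; about a fifth of the inactives were tested at one dose only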
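Cells in DMEM/10% FBS with G418 were pretreated with compounds in DMSO plus […] (300 uM stock) for 30 min at 37C. cAMP was measured by HTRF (cAMP-d2 plus anti-cAMP antibody-K) after 30 min at room temperature.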
Menin-MLL FL inh: inhibitors of human menin-MLL interaction, wild-type MLL peptide. Fluorescence polarization, fluorescein-MLL peptide displacement from menin. FP activity change, % at 61.4 µM. AID 1766. 290,000 tested, under 10 active; inconclusive = falling polarisation curve, or a change in total fluorescence; inactive = total fluorescence flat and polarisation flat or rising; no compound was filed as active; the % refers to the polarisation; negative = inhibition;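 note: % of control where 0% means no effect; inhibitors lower the polarisation; unlabelled MLL peptide was the positive control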
TRPV1 potentiator: human TRPV1 potentiation. 0.02% of 320,000 active. potentiation, % at 8.33 µM. TRPV1-expressing cells, Fluo-8 calcium influx, capsaicin EC20 potentiation; host cell line not named in the record; control for the full effect not named in the record. Q8NER1; active means potentiation above 80%; inconclusive means 30% to 80%; inactive means below 30%; note: 0% is about no effect
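TRPV1-expressing cells were cultured overnight at 35.5C and loaded with Fluo-8 calcium dye for 40 to 90 min at room temperature. After a 10 s baseline, compound was added and calcium influx was read kinetically for 3 min (ex 480/em 520 nm).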
An asterisk follows results filed as active; ? = inconclusive; . = no result given; & = joins results of further samples; [ ] = another dose, or the depositor's remark.

SMILES	ClpP mod	TRPML1 inh	gsp antagonist	Sfp PPTase inh	gsp ag	Menin-MLL FL inh	TRPV1 potentiator
COc1ccc(-c2n[nH]c(C)c2-c2ccc(Cl)cc2)c(O)c1OC	-0.6%	-1	-16%	12%	13%	-0.1	-1
O=S1(=O)CCN(Cc2ccc(F)cc2)CC1	-1.4%	-12	11%	14%	-26%	-0.5	-6
CN(CC(=O)O/N=C(\N)c1ccccn1)S(=O)(=O)c1cc(Cl)ccc1Cl	0.9%	18	-23%	-5%	?	1.8	9
CCCCc1nc(NCc2ccccc2)c(C#N)c2c1COC(C)(C)C2	?	25	-5%	11%	-19%	0.2	1
CCOc1ccc(S(=O)(=O)N(C)c2ccc(OCC(=O)NCc3ccc(C(=O)OC)cc3)cc2)cc1	.	-10	0%	13%	18%	0.4	3
CC(C)(C)c1cc[n+](/C(C(=S)NC2CC2)=C(/[O-])c2ccc(Cl)s2)cc1	-6.5%	-4	-6%	56µM*	-67%[inhibitor]	-8.6	-11
COc1ccc(S(=O)(=O)N2CC(O)CC2C(=O)Nc2cccnc2)cc1 (configuration not stated)	.	26	15%	4%	1%[15.4 µM]	0.6	-11
Cc1ccc(CNC(=O)c2cnc(-c3ccccn3)nc2C(F)(F)F)cc1	-1.7%	-10	-1%	12%	22%	-2.6	-1
CSc1cccc(NC(=O)CCCOc2ccc(Cl)cc2Cl)c1	0.1%	13	-7%	-3%	7%	0.0	-3
COc1cccc(NC(=O)CN(C)C(=O)c2cc(-c3ccc(C)o3)nc3ccccc23)c1	4.7%	-4	-26%	.	?	.	1
Cc1ccc(C)c(N2CCN(C(=O)CCCCn3c(=O)[nH]c4ccccc4c3=O)CC2)c1	-3.0%	-18	-16%	0%	-14%	1.2	10
CC1CN(S(=O)(=O)c2cccc(-c3cn4cccnc4n3)c2)CC(C)O1 (configuration not stated)	.	.	.	-16%	.	5.3	-2
COCCN(C(=O)c1cc(Cl)nc2ccccc12)c1c(N)n(Cc2ccccc2)c(=O)[nH]c1=O	0.5%	16	15%	.	-11%	.	7
CCS(=O)(=O)N1CCC(C(=O)O)CC1	.	?	5%	26%	-21%	0.2	2
CCCCOC(=O)c1ccc(NC(=O)C2CCCO2)cc1 (configuration not stated)	5.3%	36	-22%	-7%	-6%	0.5	-18
O=C(NCCc1ccccc1)c1cnc2n(c1=O)CCS2	-2.8%	-12	-2%	9%	-5%[15.4 µM]	-5.8	8
COc1ccc(OC)c(N(CC(=O)Nc2cccc(C(F)(F)F)c2)S(C)(=O)=O)c1	.	-6	-13%	18%	3%	-1.8	-1
CCC1(c2ccccc2)NC(=S)N(c2ccc(C)c(C)c2)N1 (configuration not stated)	1.7%	4	-1%	8.9µM*	2%[15.4 µM]	-7.5	17
CCOc1ccccc1NC(=S)NNS(=O)(=O)c1c(C)cc(C)cc1C	.	7	-1%	9%	-42%[inhibitor]	-0.4	7
Cc1cc(Br)ccc1NC(=O)CN(C)C(=O)C1CSC2(C)CCC(=O)N12 (configuration not stated)	0.0%	0	10%	.	-13%	.	-10
O=C1CCC(=O)N1OCCCOc1ccc(Br)cc1Cl	2.2%	-13	-13%[15.4 µM]	4%	9%	-2.6	-17
Cc1ccc(C2c3[nH]c4ccccc4c3C[C@H]3C(=O)N(c4ccccc4C(=O)NCCN4CCOCC4)C(=O)N23)cc1 (some centres not stated)	1.8%	.	-15%	5%	.	-6.1	-2
COc1c(/C=N/NC(=O)[C@H]2C[C@@H]2c2ccccc2)c(CCN(C)C(C)=O)cc2c1OCO2	0.4%	-13	-37%	4%	-1%[15.4 µM]	0.6	23
O=C(CN1C(=O)C2CC=CCC2C1=O)Nc1nc2ccc(F)cc2s1 (configuration not stated)	.	-6	-4%	-10%	7%	3.6	11
CCc1ccc(CN(C)C(=O)c2cc(=O)c3ccccc3o2)cc1	.	9	-27%	3%	-23%	-16	-18

Three compounds from above, ordered by the number in Menin-MLL FL inh, rising.
SMILES	Menin-MLL FL inh
Cc1ccc(C2c3[nH]c4ccccc4c3C[C@H]3C(=O)N(c4ccccc4C(=O)NCCN4CCOCC4)C(=O)N23)cc1 (some centres not stated)	-6.1
CCOc1ccccc1NC(=S)NNS(=O)(=O)c1c(C)cc(C)cc1C	-0.4
CC1CN(S(=O)(=O)c2cccc(-c3cn4cccnc4n3)c2)CC(C)O1 (configuration not stated)	5.3

Following part:
SMILES	ClpP mod	TRPML1 inh	gsp antagonist	Sfp PPTase inh	gsp ag	Menin-MLL FL inh	TRPV1 potentiator
N#Cc1ccc(NC(=O)c2cc(=O)c3ccccc3o2)cc1	0.0%	0	-19%	21%	-14%[15.4 µM]	-7.5	-3
CC1(C)N=C(N)NC(Nc2cccc(Br)c2)=N1	-1.0%	3	1%	11%	-31%	1.7	2
CCOc1ccc(NC(=S)Nc2ccc(OCc3ccccc3)cc2)cc1	-2.3%	-3	8%	15%	16%[15.4 µM]	5.3	-13
CC(=O)OCCNC(=O)c1cccnc1	-0.7%	7	4%	11%&2%	-2%	0.0&108	24
CCC(=O)c1ccc(OC(=O)c2cnccn2)cc1	.	0	6%	3%	14%	-0.4	5
CC(=O)C1=C(O)C(=O)N(c2cc(C(C)(C)C)on2)C1c1ccc(Br)cc1 (configuration not stated)	-13%	1	-39%	-15%	?	4.2	-5
CCCc1cc(=O)[nH]c(SCC(=O)c2cc(C)n(-c3cc(C)on3)c2C)n1	.	-6	4%	20%	?	-2.9	4
CCCCc1ccc(NC(=S)NCCO)cc1	.	35	5%	-5%	9%[15.4 µM]	-0.6	-11
CCOC(=O)N1CCN(c2c(N3CCN(C(=O)OCC)CC3)c(=O)c2=O)CC1	0.2%	-17	3%	21%	-64%[inhibitor]	3.5	0
Cc1occc1C(=O)N/N=C/c1cnn(C)c1C	-0.9%	15	-8%	18%	-29%	-4.9	5
COc1cc(N2C(=O)CSC2=S)cc(OC)c1OC	1.3%	-6	-4%	-11%	17%	3.9	20
CCOc1ccc(CNC(=O)CCCn2nc(CC)n3c(cc4occc43)c2=O)cc1	-2.9%	-5	-2%	-3%	-5%	-2.7	17
CC(=O)Nc1ccc(NC(=O)N2CCCCC2)cc1	-0.6%	-14	11%	27%	?	?	?
O=C(NNC(=O)c1ccc(F)cc1)C(=O)N1CCCCC1	-5.7%	-5	11%	6%	-1%[15.4 µM]	0.4	-2
Cc1ccc(CCNC(=O)Cn2ncc3c([nH]c4ccccc43)c2=O)cc1	-9.3%&-2.3%	-23&19	11%	-12%	?	2.5	-33
O=C1c2oc3ccc(F)cc3c(=O)c2C(c2ccncc2)N1CCN1CCOCC1 (configuration not stated)	.	.	.	-2%	.	1.0	-4
O=C(CCc1c[nH]c2ccccc12)N1CCCC1	.	-2	9%	6%	-4%	0.9	6
Cc1nn(Cc2noc(C(=O)NCc3ccc4c(c3)OCO4)n2)c(C)c1Br	3.7%	12	14%	5%	-5%[15.4 µM]	2.3	1
COC(CN(C)C(C(=O)NC1CCCCC1)c1ccccc1)OC (configuration not stated)	.	-12	1%	10%	-12%[15.4 µM]	1.8	-6
COc1cc(NC(=O)c2cc(OC)c(OC)c(OC)c2)cc(-n2cnnn2)c1	.	2	-18%	11%	-14%[15.4 µM]	5.4	15
O=C(Nc1ccncc1)c1cn(-c2ccccc2)nc1-c1cccs1	-15%	12	?	-4%	20%	6.6	22
CCOC(=O)c1cc(S(=O)(=O)N2CCC(C)CC2)cn1C	1.0%	-6	1%	5%	-4%	.	-11
CCCn1c(-c2ccc(C(=O)OC)cc2)nc2c1c(=O)[nH]c(=O)n2Cc1ccccc1	.	22	-2%	11%	19%	0.0	6
COc1ccccc1C(=O)NCC(=O)NC(C)c1ccc(-n2ccnc2)cc1 (configuration not stated)	-3.2%	-3	5%	3%	-5%	.	-15
COc1cccc(CNC(=O)CCC2CCCN(C(=O)c3cccc(Cl)c3)C2)c1 (configuration not stated)	-1.6%	-5	-5%	9%	?	-0.6	-14
(more compounds)
SMILES	ClpP mod	TRPML1 inh	gsp antagonist	Sfp PPTase inh	gsp ag	Menin-MLL FL inh	TRPV1 potentiator
O=C(c1ccc2c(c1)OCO2)C1CCCN(Cc2cc(F)ccc2-n2cccn2)C1 (configuration not stated)	.	12	9%	6%	-14%[15.4 µM]	0.9	11
CCN(CC)CCCN(Cc1cc2cc3c(cc2[nH]c1=O)OCCO3)C(=O)Nc1ccccc1	20µM*	17	3%	20%	13%	0.0	1
O=C(CCSc1ccccc1)N1CCCC1	.	-7	6%	17%	-29%[15.4 µM]	-0.9	12
O=C(N/C(=C\c1ccc(Br)cc1)C(=O)N1CCCC1)c1cccs1	.	-6	.	15%	-3%[15.4 µM]	-2.9	-1
CCOC(=O)CSc1nnc(CNc2ccc(Cl)cc2)n1Cc1ccccc1	1.4%	12	-1%	2%	4%	-2.0	-7
CCc1cc(=O)oc2c(CN3CCCC3)c(O)c(Cl)cc12	20%	7	-9%	-13%	25%	2.5	3
CC1=C(C(=O)O)N2C(=O)C(NC(=O)c3nn(C)cc3Cl)C2SC1 (configuration not stated)	-2.7%	14	-13%	40µM*	4%	0.1	11
NC(=O)c1nn(-c2ccccc2)nc1NC(=O)CN1CCCC1	.	-8	6%	?	-14%[15.4 µM]	-0.5	-1
O=C(/C=C/c1ccco1)N(Cc1ccc(Cl)cc1)C1CCS(=O)(=O)C1 (configuration not stated)	.	10	-16%	25µM*	11%	6.1	-1
O=C(N/N=C\c1cn[nH]c1-c1ccccc1)c1cccnc1	-8.9%	6	3%	22%	4%	1.9	-5
Cc1sc2nc(SCC(=O)NCc3ccco3)n(-c3ccccc3)c(=O)c2c1C	3.1%	-4	21%	8%	?	-1.1	-10
COc1ccc(-c2csc(N)n2)cc1F	-0.3%	10	1%	-15%	-1%	-5.0	-6
Cc1ccccc1-n1ncc2c([N+](=O)[O-])cc([N+](=O)[O-])cc21	1.2%	0	5%	-10%	0%	-0.8	-3
CCCCn1c(N)c(N(CCOC)C(=O)CN2C(=O)C3CCCCC3C2=O)c(=O)[nH]c1=O (configuration not stated)	-3.0%	-9	8%	.	-32%[inhibitor]	.	0
